NPYLR7 agonist: mosquito NPYLR7 agonism. HEK293T NPYLR7/Galpha15, GCaMP6s calcium fluorescence. activation, % at 10 µM. 270,000 compounds, 0.15% hits. AID 1259423; in the data active = activation above about 40%;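 note: 0% = vehicle and 100% = reference agonist at the receptor; some compounds past the cut are filed as inactive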
NPYLR7 agonist max-min: second read-out of NPYLR7 agonist, no call of its own (marks repeat the call); activation, %; measured here: Max-Min RFU normalised activation; some inactives read as strong as hits;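 span of the calcium signal over five minutes; 0% = vehicle and 100% = native peptide agonist; compound fluorescence can raise it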
* = called active by the depositor; & = joins results of further samples. An excerpt; count on the stated rates, not on these rows.

How did O=c1c2c3nc4ccccc4nc3n(C3CCCC3)c2ncn1Cc1ccccc1 do in these assays?
NPYLR7 agonist: 0.7; NPYLR7 agonist max-min: -0.7

What do the screens show for `c1ccc(-n2ncc3c(N4CCN(c5ccccn5)CC4)ncnc32)cc1`?
NPYLR7 agonist: 4.3; NPYLR7 agonist max-min: 5.1

What do the screens show for `COCC(C)NCc1cnc(SC)nc1N1CCc2cc(OC)c(OC)cc2C1` (stereo not drawn)?
NPYLR7 agonist: -1.1; NPYLR7 agonist max-min: -3.5

Results for Cc1ccccc1S(=O)(=O)NC(=O)C1(C)CCN1C(=O)c1ccccc1CCc1ccccc1 (stereo not drawn) ?
NPYLR7 agonist: 0.9; NPYLR7 agonist max-min: -1.6

Results for CNC(=O)c1ccc(CN2CCCC(Nc3ccc(F)cc3)C2)o1 (stereo not drawn) ?
NPYLR7 agonist: 5.9; NPYLR7 agonist max-min: 1.4

What do the screens show for `CCC(NC(=O)C1CC(=O)c2sc(NC(=O)Cc3ccccc3)nc2C1)c1cccs1` (stereo not drawn)?
NPYLR7 agonist: -0.5; NPYLR7 agonist max-min: -3.7

Results for CCN(Cc1noc(C)n1)C(=O)c1cc(C)nc2cc(F)ccc12 ?
NPYLR7 agonist: 3.0; NPYLR7 agonist max-min: 0.6

Results for CC(CC12CC3CC(CC(C3)C1)C2)=NNC(N)=O ?
NPYLR7 agonist: -18.9; NPYLR7 agonist max-min: -25.5

Results for COc1ccc(S(=O)(=O)NCCc2nnc3ccc(SCc4cccnc4)nn23)cc1 ?
NPYLR7 agonist: 1.8; NPYLR7 agonist max-min: -7.2

How did COc1ccc(CNC(=O)c2cn(-c3cc(N4CCCCC4)ncn3)cn2)cc1 do in these assays?
NPYLR7 agonist: -7.5; NPYLR7 agonist max-min: -8.9

What do the screens show for `CCn1nc(C)c(CNC(=O)c2cc(COc3ccc(C)nc3)on2)c1C`?
NPYLR7 agonist: 4.6; NPYLR7 agonist max-min: 1.2

What do the screens show for `CN1CCN(c2ccc(-c3cnc4c(Nc5cccc(OC(F)(F)C(F)F)c5)nccn34)cn2)CC1`?
NPYLR7 agonist: -2.5; NPYLR7 agonist max-min: -5.6

Results for CSc1nc2cc(Oc3cccc(Cl)c3Cl)c(Cl)cc2[nH]1 ?
NPYLR7 agonist: 4.1&-12.7&6.4; NPYLR7 agonist max-min: 5.3&-18.4&0.3

What do the screens show for `CSc1ncccc1C(=O)N[C@@H]1[C@@H](c2ccccc2)[C@@H](CO)N2CCCC[C@H]12`?
NPYLR7 agonist: 21.9; NPYLR7 agonist max-min: 30.3

What do the screens show for `CCN1CCCC1CNC(=O)CCC1CCN(C(=O)c2ccc(C)nc2)CC1` (stereo not drawn)?
NPYLR7 agonist: -0.1; NPYLR7 agonist max-min: -5.0

Results for CC(OCc1ccccc1)C(=O)Nc1ccc(-n2nccn2)nc1 (stereo not drawn) ?
NPYLR7 agonist: 5.6; NPYLR7 agonist max-min: 2.7

Results for CC(CCN1CCCN(C(=O)C2CCC2)CC1)c1ccccc1 (stereo not drawn) ?
NPYLR7 agonist: 2.7; NPYLR7 agonist max-min: 23.4

How did CS(=O)(=O)NCC1CCCN(C(=O)Cc2csc(Cc3ccccc3)n2)C1 (stereo not drawn) do in these assays?
NPYLR7 agonist: -0.9; NPYLR7 agonist max-min: -2.0

What do the screens show for `Cc1cc(=O)[nH]c(NN=Cc2c3ccccc3cc3ccccc23)n1`?
NPYLR7 agonist: 4.1; NPYLR7 agonist max-min: 3.7

Results for COc1c(NC(=O)C(=O)Nc2cc(C)cc(C)c2)c(C)nn1C ?
NPYLR7 agonist: -0.7; NPYLR7 agonist max-min: 1.1

How did CCCCC(O)CN(Cc1ccco1)Cc1c(-c2ccccc2)nn(C)c1Oc1ccc(OC)cc1 (stereo not drawn) do in these assays?
NPYLR7 agonist: -5.3; NPYLR7 agonist max-min: 3.9

Results for Cc1ccc2nc(SCC(=O)Nc3cccc(C)c3C)nc(=O)n2c1 ?
NPYLR7 agonist: 0.2; NPYLR7 agonist max-min: -3.0

Results for COc1ccc(/C=C/C2=NC(=C\c3ccc4c(c3)OCO4)/C(=O)O2)cc1 ?
NPYLR7 agonist: -1.1; NPYLR7 agonist max-min: -4.1

Results for Cc1cccc(CC(=O)Nc2ccc(SCC(=O)N3CCCC3)nn2)c1 ?
NPYLR7 agonist: -0.3; NPYLR7 agonist max-min: -1.3

Results for COCCn1c(=NC(=O)c2ccc3ncsc3c2)sc2cc(S(C)(=O)=O)ccc21 ?
NPYLR7 agonist: 5.5; NPYLR7 agonist max-min: 3.4

What do the screens show for `COCc1nc(C)cc(N(CCC#N)CC2CCC2)n1`?
NPYLR7 agonist: -1.5; NPYLR7 agonist max-min: -2.7

Results for Cc1ccccc1N1CCN(C(=O)CCc2nnc(CCCc3ccccc3)o2)CC1 ?
NPYLR7 agonist: -2.1; NPYLR7 agonist max-min: -2.9

How did CS(=O)(=O)N1CCC(C(=O)N(Cc2ccccn2)c2nc3ccc(F)cc3s2)CC1 do in these assays?
NPYLR7 agonist: -0.6; NPYLR7 agonist max-min: -0.3

How did O=C(NC1CC1)c1ccccc1SC1CCS(=O)(=O)C1 (stereo not drawn) do in these assays?
NPYLR7 agonist: -0.4; NPYLR7 agonist max-min: -0.6

What do the screens show for `COc1ccccc1C(=O)NC1(C(F)(F)F)NC(=O)N(C)C1=O` (stereo not drawn)?
NPYLR7 agonist: -12.3; NPYLR7 agonist max-min: -19.9

How did CCn1nc(C)c(CNC2CCN(c3ccc(NC(=O)Cc4ccc(OC)cc4)cc3)CC2)c1C do in these assays?
NPYLR7 agonist: 4.4; NPYLR7 agonist max-min: -0.1

How did O=C(Cn1c(-c2ccc([N+](=O)[O-])s2)nc2ccccc21)NCCc1cccc(F)c1 do in these assays?
NPYLR7 agonist: 15.8; NPYLR7 agonist max-min: 11.2

What do the screens show for `COc1ccccc1C(NS(=O)(=O)N(C)C(C)C1CC1)c1noc(C)n1` (stereo not drawn)?
NPYLR7 agonist: 2.0; NPYLR7 agonist max-min: -5.8

How did COCc1c(Br)c(C)nc(OCC(=O)N/N=C\c2ccc(I)cc2)c1C#N do in these assays?
NPYLR7 agonist: -5.1; NPYLR7 agonist max-min: -12.5

How did C=CCNC(=O)CN(C)C1CCN(c2ccc(F)cc2)CC1 do in these assays?
NPYLR7 agonist: 10.6; NPYLR7 agonist max-min: 7.3

What do the screens show for `CC(CNc1nc(-c2ccccc2)nc2c1CCNC2)Oc1cccnc1` (stereo not drawn)?
NPYLR7 agonist: -0.4; NPYLR7 agonist max-min: 9.9

Results for COCCCN(CC(=O)N(Cc1ccc(F)cc1)Cc1sccc1C)C(=O)Nc1cccc(OC)c1 ?
NPYLR7 agonist: 13.5; NPYLR7 agonist max-min: 19.1

Results for COC(=O)c1ccc(COC(CN2CCN(C(=O)NCc3ccc(OC)cc3)CC2)c2ccc(Cl)cc2)cc1 (stereo not drawn) ?
NPYLR7 agonist: -2.1; NPYLR7 agonist max-min: 7.3

Results for CCC1CN(C(=O)c2ccc(-c3cnn(C)c3)nc2)CCN1C(C)C (stereo not drawn) ?
NPYLR7 agonist: -5.7; NPYLR7 agonist max-min: -5.9

What do the screens show for `Cc1cnc(Cn2cnc(-c3ccccc3)c2-c2ccc(-c3ccn[nH]3)o2)cn1`?
NPYLR7 agonist: 16.8; NPYLR7 agonist max-min: 6.9

What do the screens show for `CN(C)c1nc(N)nc(CSC23CC4CC(CC(C4)C2)C3)n1`?
NPYLR7 agonist: 1.0&10.6; NPYLR7 agonist max-min: 0.2&9.2

What do the screens show for `COCCCNC(=O)C(NC(=O)c1ccccc1F)C1CCN(C(=O)Cc2ccccc2)CC1` (stereo not drawn)?
NPYLR7 agonist: -1.3; NPYLR7 agonist max-min: 0.3

Results for Cc1cc(C)c(NC(=O)Cn2ncc(=O)c3ccccc32)c(C)c1 ?
NPYLR7 agonist: 2.0; NPYLR7 agonist max-min: 0.7

Results for COc1ccc(Cl)cc1NC(=O)Nc1c(C)nc2sccn2c1=O ?
NPYLR7 agonist: -2.1; NPYLR7 agonist max-min: -3.1

Results for Cc1csc(C2CCN(S(=O)(=O)N3CCCC(C)C3)CC2)n1 (stereo not drawn) ?
NPYLR7 agonist: 4.3; NPYLR7 agonist max-min: -0.5

How did CC(c1ccc(C(=O)NCCc2c[nH]c3ccccc23)o1)N1CCCCC1 (stereo not drawn) do in these assays?
NPYLR7 agonist: -3.5; NPYLR7 agonist max-min: -2.1

What do the screens show for `CC(NCc1cccnc1)c1ccc(N2CCN(C)CC2)c(F)c1` (stereo not drawn)?
NPYLR7 agonist: -0.4; NPYLR7 agonist max-min: -0.8

Results for O=C(c1ccc2c3c(cccc13)CC2)C1CCCN(C(=O)c2ccc3c(c2)OCO3)C1 (stereo not drawn) ?
NPYLR7 agonist: 5.7; NPYLR7 agonist max-min: 8.1

The list goes on; the last six above are carried over.
Results for Cc1cc(C)c(NC(=O)Cn2ncc(=O)c3ccccc32)c(C)c1 ?
NPYLR7 agonist: 2.0; NPYLR7 agonist max-min: 0.7

Results for COc1ccc(Cl)cc1NC(=O)Nc1c(C)nc2sccn2c1=O ?
NPYLR7 agonist: -2.1; NPYLR7 agonist max-min: -3.1

Results for Cc1csc(C2CCN(S(=O)(=O)N3CCCC(C)C3)CC2)n1 (stereo not drawn) ?
NPYLR7 agonist: 4.3; NPYLR7 agonist max-min: -0.5

How did CC(c1ccc(C(=O)NCCc2c[nH]c3ccccc23)o1)N1CCCCC1 (stereo not drawn) do in these assays?
NPYLR7 agonist: -3.5; NPYLR7 agonist max-min: -2.1

What do the screens show for `CC(NCc1cccnc1)c1ccc(N2CCN(C)CC2)c(F)c1` (stereo not drawn)?
NPYLR7 agonist: -0.4; NPYLR7 agonist max-min: -0.8

Results for O=C(c1ccc2c3c(cccc13)CC2)C1CCCN(C(=O)c2ccc3c(c2)OCO3)C1 (stereo not drawn) ?
NPYLR7 agonist: 5.7; NPYLR7 agonist max-min: 8.1

How did Cc1cc(Br)ccc1NC(=O)CNc1ncnc2ccsc12 do in these assays?
NPYLR7 agonist: 6.6; NPYLR7 agonist max-min: 4.5

Results for O=C(O)c1cc(-c2cccs2)nn1-c1ccc(F)cc1 ?
NPYLR7 agonist: 13.4; NPYLR7 agonist max-min: 17.7

What do the screens show for `Cc1oc2cc(OCC(=O)O)ccc2c(=O)c1-c1ccc2c(c1)OCCCO2`?
NPYLR7 agonist: -12.2; NPYLR7 agonist max-min: -16.4

What do the screens show for `CCn1cc(Cl)c(-c2n[nH]c(=S)n2-c2ccc(S(N)(=O)=O)cc2)n1`?
NPYLR7 agonist: 1.6; NPYLR7 agonist max-min: 0.2

Results for CCc1c(C)nc(-n2nc(C)cc2C)n(CC(=O)NCc2ccccc2Cl)c1=O ?
NPYLR7 agonist: -1.0; NPYLR7 agonist max-min: -3.7

What do the screens show for `Cc1ccc(C(CC(=O)NCCN2CCCCC2)c2cn(C)c3ccccc23)cc1` (stereo not drawn)?
NPYLR7 agonist: -1.5; NPYLR7 agonist max-min: 9.8

How did COc1ccc(CN(Cc2ccco2)C(=O)c2ccc(-c3ccccc3)cc2)cc1OS(C)(=O)=O do in these assays?
NPYLR7 agonist: 3.3; NPYLR7 agonist max-min: 25.4

What do the screens show for `Cc1cccc(CC2(NC(=O)C(C)n3ccnc3C(C)C)CC2)c1` (stereo not drawn)?
NPYLR7 agonist: 12.1; NPYLR7 agonist max-min: 9.4

How did O=S(=O)(Cc1ccccc1)NC1(c2ccccc2)CCC1 do in these assays?
NPYLR7 agonist: 12.5; NPYLR7 agonist max-min: 8.3

How did Cc1ccc(S(=O)(=O)Nc2cc(-c3ccccc3)nn2C2CCS(=O)(=O)C2)cc1 (stereo not drawn) do in these assays?
NPYLR7 agonist: 0.1; NPYLR7 agonist max-min: -1.9

Results for CN1CCCn2nc(C(=O)NC3COC4(CCCC4)C3)cc2C1 (stereo not drawn) ?
NPYLR7 agonist: 16.6; NPYLR7 agonist max-min: 10.2

How did CCNC(=O)CSc1ccc(S(=O)(=O)N2CCCCCC2)cn1 do in these assays?
NPYLR7 agonist: -7.3; NPYLR7 agonist max-min: -8.7

How did COc1ccc(/C=C2N=C(/C=C/c3ccccc3)OC/2=O)cc1OC do in these assays?
NPYLR7 agonist: 1.7; NPYLR7 agonist max-min: -1.8

Results for C=CCNC(=O)Cn1c(CO)cnc1SCc1cccc(C(F)(F)F)c1 ?
NPYLR7 agonist: 6.1; NPYLR7 agonist max-min: 0.9

Results for CC1CC2C(O)CCC(=O)C2C(=O)O1 (stereo not drawn) ?
NPYLR7 agonist: -7.1; NPYLR7 agonist max-min: -15.9

What do the screens show for `Cc1cccc(C(=O)N2CCC3(CC2)OCCCO3)c1`?
NPYLR7 agonist: -8.4; NPYLR7 agonist max-min: -11.7

What do the screens show for `CCC(=O)C1=C(c2cccc([N+](=O)[O-])c2)N(C(=O)CC)n2c(C)nnc2S1`?
NPYLR7 agonist: 3.4; NPYLR7 agonist max-min: -0.6

How did O=C(NCc1cc(Br)cs1)c1ccc(Cl)o1 do in these assays?
NPYLR7 agonist: -0.4&6.5; NPYLR7 agonist max-min: -3.1&8.2

What do the screens show for `CNc1ncc(CN(C)c2nc(-c3cccnc3)nc3c2cnn3C)cn1`?
NPYLR7 agonist: 2.8; NPYLR7 agonist max-min: 1.5

What do the screens show for `CC(CN1CCc2ccccc2C1)NC(=O)CS(C)(=O)=O` (stereo not drawn)?
NPYLR7 agonist: 9.0; NPYLR7 agonist max-min: -1.6

How did Cn1nc(C(=O)NCc2ccccc2-n2ccnc2)c2c1CCCC2 do in these assays?
NPYLR7 agonist: 3.5; NPYLR7 agonist max-min: 3.8

What do the screens show for `CC1(C)OCC(CNC(=O)c2cncn2-c2ccc(-c3cc(C(F)(F)F)cc(C(F)(F)F)c3)cc2)O1` (stereo not drawn)?
NPYLR7 agonist: 1.6; NPYLR7 agonist max-min: -0.3

Results for Cc1c(C(=O)OCc2ccccc2F)nnn1-c1ccc(F)cc1 ?
NPYLR7 agonist: -6.1; NPYLR7 agonist max-min: -14.2

Results for O=C1c2ccccc2NC(C#Cc2ccccc2)N1Cc1ccccc1 (stereo not drawn) ?
NPYLR7 agonist: -1.0; NPYLR7 agonist max-min: -1.6

Screening data as filed in PubChem BioAssay.
